Assay outcomes as filed in PubChem BioAssay.
MLL AF4-AF9 inh = inhibitors of AF4 peptide binding to AF9, primary screen, biochemical, AlphaScreen, biotin-AF4 peptide, FLAG-AF9, single point; Protein AF-9 (Homo sapiens), P42568; inhibition, % at 10 µM; hit rate 0.47% among 350,000;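 active = every replicate reaching a set inhibition limit, whatever the replicate mean, cut at about 25% in these data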;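 note: 0% = plate neutral control median and 100% = total signal loss; the record names both 10 and 1 µM as test concentration; the first replicate is given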
Target sequence (P42568 whole entry, looked up): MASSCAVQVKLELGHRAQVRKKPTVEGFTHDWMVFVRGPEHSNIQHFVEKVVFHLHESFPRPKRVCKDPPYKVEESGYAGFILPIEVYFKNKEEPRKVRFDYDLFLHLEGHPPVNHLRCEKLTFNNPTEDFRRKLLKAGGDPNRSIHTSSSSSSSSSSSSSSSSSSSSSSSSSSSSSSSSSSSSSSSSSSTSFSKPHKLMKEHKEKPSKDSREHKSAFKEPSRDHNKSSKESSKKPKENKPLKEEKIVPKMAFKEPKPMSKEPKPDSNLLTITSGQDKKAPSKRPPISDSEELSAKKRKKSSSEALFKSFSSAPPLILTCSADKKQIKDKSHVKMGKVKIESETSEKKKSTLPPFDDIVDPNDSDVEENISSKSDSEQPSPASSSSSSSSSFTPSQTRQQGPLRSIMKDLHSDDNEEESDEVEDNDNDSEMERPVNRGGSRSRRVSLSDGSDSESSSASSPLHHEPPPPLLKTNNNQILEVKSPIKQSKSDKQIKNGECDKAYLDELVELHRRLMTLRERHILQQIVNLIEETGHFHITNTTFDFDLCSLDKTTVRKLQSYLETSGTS
rRNA inh HTS = reduced GFP signal of wild-type E. coli, primary screen, bacterial rRNA inhibitor project, GFP/RFP fluorescence, OD600, single point. E. coli WT GFP vs humanized-ribosome RFP mutants, 24 h; hits give low values; DMSO median 0, no signal -100. GFP signal change (wild-type ribosome), % (test concentration not listed). hit rate 1.6% among 350,000;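 active = significant combined selectivity score with lowered wild-type GFP, culture density cut under 30%, mutant RFP and density less affected; inactive = any of these conditions unmet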; note: one replicate is shown; some compounds called inactive have numbers as strong as hits
rRNA inh HTS OD600 = also measured in rRNA inh HTS; calls as there; OD600 change, %; measured here: OD600 growth;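 optical density of the mix in the first replicate; 0 = DMSO median and -100 = no signal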
rRNA inh HTS RFP = also measured in rRNA inh HTS; calls as there; RFP signal change, %; measured here: RFP humanized mutant strains;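 first replicate; 0 = DMSO median and -100 = no signal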
* hit, by the source's call; & = joins results of further samples.

MLL AF4-AF9 inh	rRNA inh HTS	rRNA inh HTS OD600	rRNA inh HTS RFP	SMILES
-2.4	-4	2	-16	C=Cc1ccc(Cn2c(C)c(C(=O)NCc3cccc(C)c3)sc2=O)cc1
-0.3	-5	4	-0.2	CN(C)C(=O)c1ccc(-c2ccc3c(c2)[C@H]2[C@H](CCN2C(=O)C2CCC2)[C@H](CO)N3C)cc1
2.0	-9	-13	1.8	Cc1cc(OCCCC(=O)Nc2cc(S(=O)(=O)N3CCOCC3)ccc2N2CCOCC2)ccc1Cl
0.6	1	8	0.7	Cc1noc(C)c1NC(=O)N(C)C[C@H]1Oc2ccc(NC(=O)Nc3ccc4c(c3)OCO4)cc2C(=O)N([C@H](C)CO)C[C@H]1C
-1.5	1	8	-0.8	CN(C)C(=O)[C@@H]1[C@@H](CO)[C@@H]2Cn3c(ccc(-c4ccncc4)c3=O)[C@H]1N2CC1CC1
-9.7	0	0	1.2	CO[C@@H]1CN(C)C(=O)c2cc(NC(=O)NC3CCCC3)ccc2OC[C@H](C)NC[C@@H]1C
8.2	7	3	2.9	O=C(CN1CCN(C(C(=O)Nc2cc(C(F)(F)F)ccc2Cl)c2ccccc2)CC1)NC1CC1 (configuration not stated)
5.1	-4	-3	-0.2	COc1ccc2c3c([nH]c2c1)[C@@H](CO)N(S(=O)(=O)c1ccccc1)CC31CCN(C)CC1
-6.2	3	6	-1.6	COc1ccccc1NC(=O)CN1CCN(CC(=O)Nc2ccccc2F)CC1
-1.4	0	16	2.8	COc1cccc(NC(=O)c2cnc(NS(=O)(=O)c3ccccc3)nc2)c1
-2.6	-5	-2	-3.9	Cc1noc(C)c1S(=O)(=O)Nc1ccc2c(c1)CC(=O)N([C@H](C)CO)C[C@@H](C)[C@H](CN(C)Cc1ccc(C(=O)Nc3ccccc3N)cc1)O2
-4.4	-4	-3	5.3	CC(C)c1cccc(-c2csc(C(O)c3ccco3)n2)c1 (configuration not stated)
1.2	-1	0	1.7	COc1ccccc1NC(=O)Nc1ccc2c(c1)OC[C@H](C)NC[C@H](C)[C@@H](OC)CN(C)C2=O
-4.7	-1	-6	1.7	Cc1noc(C)c1NC(=O)N(C)C[C@@H]1Oc2c(NC(=O)c3ccc(-c4nccs4)cc3)cccc2C(=O)N([C@H](C)CO)C[C@@H]1C
-3.0	0	4	-0.2	C[C@@H]1CN([C@H](C)CO)C(=O)c2cc(/C=C/c3ccccc3)cnc2O[C@@H]1CN(C)Cc1cccc(C(=O)O)c1
-0.7	1	2	0.0	Cc1nn(C)cc1NC(=O)C[C@H]1CC[C@@H]2[C@H](COc3ccc(NC(=O)NC(C)C)cc3C(=O)N2C)O1
-1.4	0	3	9.1	C[C@@H]1CN([C@@H](C)CO)C(=O)c2cc(NS(C)(=O)=O)ccc2O[C@@H](C)CCCCO[C@@H]1CN(C)S(=O)(=O)c1ccc(Cl)cc1
0.2	-43	-40	4.8	O=C(C[C@@H]1CC[C@H]2[C@@H](COC[C@H](O)CN2C(=O)Nc2ccc(Cl)c(Cl)c2)O1)NC1CCC1
0.2&-0.7	0&0	8&2	-4.2&0.6	C[C@@H]1CN([C@H](C)CO)C(=O)CCCn2nncc2CO[C@@H]1CN(C)S(=O)(=O)c1ccccc1F
-12	6	11	-2.4	COc1ccc2c3c([nH]c2c1)[C@H](CO)N(C)CC31CCN(C(=O)Nc2c(C)noc2C)CC1
0.0	-3	-5	-1.6	C[C@H]1CCCCO[C@@H](CN(C)Cc2ccncc2)[C@@H](C)CN([C@@H](C)CO)C(=O)c2cc(NS(C)(=O)=O)ccc2O1
-5.8	0	10	-0.5	CC(=O)N1[C@@H]2c3ccc(/C=C/c4ccccc4)c(=O)n3C[C@H]1[C@H](CO)[C@H]2C(=O)N1CCOCC1
-1.4	1	1	1.9	Cc1noc(C)c1S(=O)(=O)Nc1ccc2c(c1)CC(=O)N([C@H](C)CO)C[C@@H](C)[C@H](CN(C)Cc1ccccc1)O2
-12	-2	14	5.8	Cc1noc(C)c1NC(=O)N(C)C[C@@H]1Oc2ccc(NC(=O)Nc3ccc4c(c3)OCO4)cc2CC(=O)N([C@H](C)CO)C[C@@H]1C
0.9	1	7	-0.6	C[C@@H]1CN([C@@H](C)CO)C(=O)c2c(c3ccccc3n2C)-c2ccccc2CO[C@@H]1CN(C)S(=O)(=O)CC(F)(F)F
4.4	2	-4	1.4	C[C@H](CO)N1C[C@H](C)[C@H](CN(C)S(C)(=O)=O)Oc2ccc(NC(=O)Nc3cccc4ccccc34)cc2C1=O
1.1	-8	3	30	COc1cccc(-c2ccc([C@H]3[C@@H](CO)N(C(=O)c4ccccn4)[C@H]3C#N)cc2)c1
-0.8	3	-2	-2.2	O=C(C[C@@H]1C[C@H]2c3cc(NC(=O)C4CCOCC4)ccc3O[C@H]2[C@H](CO)O1)NCc1ccncc1
-3.8	-1	3	-3.3	CCCNC(=O)[C@H]1[C@H](CO)[C@H]2Cn3c(ccc(-c4ccc(OC)cc4)c3=O)[C@@H]1N2CC
-2.8	7	8	-2.0	CCC(=O)N1[C@H](CO)[C@@H]2c3ccccc3N(C(=O)c3cnccn3)C[C@@H]21

Quoted at random: four compounds from above
MLL AF4-AF9 inh	rRNA inh HTS	rRNA inh HTS OD600	rRNA inh HTS RFP	SMILES
-9.7	0	0	1.2	CO[C@@H]1CN(C)C(=O)c2cc(NC(=O)NC3CCCC3)ccc2OC[C@H](C)NC[C@@H]1C
-5.8	0	10	-0.5	CC(=O)N1[C@@H]2c3ccc(/C=C/c4ccccc4)c(=O)n3C[C@H]1[C@H](CO)[C@H]2C(=O)N1CCOCC1
5.1	-4	-3	-0.2	COc1ccc2c3c([nH]c2c1)[C@@H](CO)N(S(=O)(=O)c1ccccc1)CC31CCN(C)CC1
-4.7	-1	-6	1.7	Cc1noc(C)c1NC(=O)N(C)C[C@@H]1Oc2c(NC(=O)c3ccc(-c4nccs4)cc3)cccc2C(=O)N([C@H](C)CO)C[C@@H]1C

Limited to rRNA inh HTS and rRNA inh HTS OD600, for 2 of the compounds above:
compound	rRNA inh HTS	rRNA inh HTS OD600
O=C(C[C@@H]1CC[C@H]2[C@@H](COC[C@H](O)CN2C(=O)Nc2ccc(Cl)c(Cl)c2)O1)NC1CCC1	-43	-40
C[C@@H]1CN([C@H](C)CO)C(=O)CCCn2nncc2CO[C@@H]1CN(C)S(=O)(=O)c1ccccc1F	0&0	8&2

(more compounds)
MLL AF4-AF9 inh	rRNA inh HTS	rRNA inh HTS OD600	rRNA inh HTS RFP	SMILES
2.5	-1	-16	1.4	COc1ccc(S(=O)(=O)Nc2ccc3c(c2)C(=O)N([C@H](C)CO)C[C@H](C)[C@@H](CN(C)Cc2ccc(Cl)c(Cl)c2)O3)cc1
-4.0	1	6	-1.4	O=C(NC1CCC1)[C@H]1[C@H](CO)[C@H]2Cn3c(ccc(-c4ccncc4)c3=O)[C@H]2N1CC1CC1
-2.7	0	0	1.1	C[C@@H]1CN([C@H](C)CO)C(=O)c2cc(NC(=O)NC3CCCCC3)ccc2O[C@H]1CN(C)S(=O)(=O)c1ccc(Cl)cc1
-0.9	1	-5	1.9	O=C(C[C@H]1CC[C@H]2[C@@H](COC[C@@H](O)CN2C(=O)C2CCCC2)O1)NCc1ccncc1
-13	4	3	-1.2	C[C@H]1CCCCO[C@H](CN(C)C)[C@@H](C)CN([C@@H](C)CO)C(=O)c2cc(NC(=O)CCC(F)(F)F)ccc2O1
-2.3	2	-3	-1.2	C[C@H](CO)N1C[C@H](C)[C@@H](CN(C)C(=O)c2ccccc2)Oc2cc(C3=CCCC3)ccc2S1(=O)=O
35*	-17	-34	31	COc1ccc(-c2ccc3c(c2)[C@@H]2[C@@H](CCN2C(=O)C2CCCC2)[C@H](CO)N3C)cc1
-1.5	5	8	0.5	C[C@H](CO)N1C[C@H](C)[C@H](CN(C)S(C)(=O)=O)Oc2c(NS(=O)(=O)c3ccccc3)cccc2C1=O
-0.6	2	1	5.5	CO[C@@H]1CN(C)C(=O)c2cc(NC(=O)Cc3ccccc3)ccc2OC[C@@H](C)N(C)C[C@H]1C
0.0	-4	-9	-1.4	COc1ccc(S(=O)(=O)N(C)C[C@@H]2Oc3ccc(NC(=O)NC4CCCCC4)cc3C(=O)N([C@@H](C)CO)C[C@H]2C)cc1
1.4	-58	-82	-20	O=C(C[C@@H]1CC[C@H]2[C@@H](COC[C@@H](O)CN2C(=O)Nc2ccc(C(F)(F)F)cc2)O1)NCCc1ccncc1
-1.5	1	16	-1.1	COCC(=O)N1CC2(C1)[C@H](c1ccc(C3=CCCC3)cc1)[C@@H](CO)N2C(=O)COC
-5.0	6	19	-1.8	Cc1noc(C)c1NC(=O)N(C)C[C@H]1Oc2ccc(NC(=O)NC(C)C)cc2C(=O)N([C@@H](C)CO)C[C@H]1C
0.2	-5	-11	6.5	O=C(Nc1ccc(C(F)(F)F)cc1)N[C@H]1CC[C@@H](CCNC(=O)c2ccccc2F)O[C@@H]1CO
-1.9	3	1	-0.7	O=C(Nc1ccccc1F)N[C@H]1CC[C@@H](CC(=O)N2CCCCC2)O[C@@H]1CO
-4.1	4	1	-4.9	CN(C(=O)c1cccc(NC(=O)Cc2ccc(NC(=O)C3CCCN(C(=O)c4ccccc4)C3)cc2)c1)C1CCCC1 (configuration not stated)
-0.1	4	11	-5.8	CO[C@H]1CN(C)C(=O)c2cc(NC(=O)NC3CCCCC3)ccc2OC[C@H](C)N(CC2CC2)C[C@@H]1C
0.9	4	11	-1.8	Cc1ccc(S(=O)(=O)Nc2ccc3c(c2)C(=O)N([C@H](C)CO)C[C@@H](C)[C@@H](CN(C)C(=O)NC2CCCCC2)O3)cc1
-3.2	-4	6	-1.6	Cc1ccccc1-c1cnc2c(c1)C(=O)N([C@H](C)CO)C[C@H](C)[C@H](CN(C)C(=O)c1ccccc1)O2
0.3	-28	-32	-2.7	C[C@H](CO)N1C[C@H](C)[C@H](CN(C)C(=O)Nc2ccc(C(F)(F)F)cc2)Oc2c(cccc2N(C)C)C1=O
-11	-14	-14	8.7	CCOC(=O)N1CCN(C(=O)C[C@@H]2C[C@@]3(C(=O)OCC)CCC=C3N(Cc3cccc4ccccc34)C2=O)CC1
-5.4	-16	-47	-3.4	COc1cccc(C(C)(O)c2nc(-c3ccc(F)cc3OC)cs2)c1 (configuration not stated)
-0.5	3	10	1.7	C[C@@H]1CN([C@@H](C)CO)C(=O)c2cc(NS(=O)(=O)c3cccs3)ccc2O[C@@H]1CN(C)C
-1.6	4	9	-0.9	Cc1noc(C)c1NC(=O)N(C)C[C@H]1Oc2ccc(NS(=O)(=O)c3c(C)noc3C)cc2CC(=O)N([C@H](C)CO)C[C@H]1C
3.4	-3	-1	-1.7	C[C@@H]1CN([C@@H](C)CO)C(=O)Cc2cc(NC(=O)Nc3ccc4c(c3)OCO4)ccc2O[C@@H]1CN(C)C
-1.9	-5	-6	-1.2	CS(=O)(=O)Nc1ccc2c(c1)[C@H]1C[C@H](CC(=O)NCc3ccc(Cl)cc3)O[C@H](CO)[C@H]1O2
-1.0	-60	-76	-24	CCNC(=O)C[C@H]1CC[C@@H]2[C@H](COC[C@@H](O)CN2C(=O)Nc2ccc(Cl)c(Cl)c2)O1
1.4	-6	-20	6.4	C[C@@H]1CN([C@@H](C)CO)S(=O)(=O)c2ccc(C#Cc3ccccc3)cc2O[C@H]1CN(C)C(=O)Cc1ccccn1
-13	-1	-4	0.6	CO[C@H]1CN(C)C(=O)c2cc(NS(C)(=O)=O)ccc2OC[C@H](C)N(CC2CCOCC2)C[C@@H]1C
-8.6	2	-12	-1.9	C[C@@H]1CN([C@H](C)CO)C(=O)c2cc(NC(=O)CCC(F)(F)F)ccc2O[C@@H](C)CCCCO[C@@H]1CN(C)S(=O)(=O)c1ccc(F)cc1
4.1	2	1	0.2	COc1ccc(S(=O)(=O)N(C)C[C@@H]2Oc3ccc(NC(=O)Nc4ccc5c(c4)OCO5)cc3C(=O)N([C@@H](C)CO)C[C@@H]2C)cc1
0.8	0	1	-1.2	C[C@@H]1CCCCO[C@@H](CN(C)C(=O)Nc2ccccc2)[C@@H](C)CN([C@@H](C)CO)C(=O)c2cc(NC(=O)Cc3ccccc3)ccc2O1
-0.8	0	-5	1.8	CCCN1[C@@H]2c3ccc(/C=C/c4ccccc4)c(=O)n3C[C@@H]2[C@@H](CO)[C@@H]1C(=O)N(C)C
-2.2	-7	-2	-1.6	COc1ccc(NC(=O)N(C)C[C@H]2Oc3ccc(NC(=O)Nc4cccc5ccccc45)cc3CC(=O)N([C@H](C)CO)C[C@@H]2C)cc1
-1.6	1	1	-0.9	COCC(=O)Nc1ccc2c(c1)OC[C@@H](C)N(CC1CC1)C[C@H](C)[C@@H](OC)CN(C)C2=O

These rows are one share of the data. The share of hits here may be higher or lower than overall.
